# Rango release inh – prevents RanGTP from dissociating the Rango-importin beta complex; O95149+P62826; Biochemical FRET Rango-importin beta, RanGTP-induced dissociation; Potency, µM (titrated, usually from 46.1 µM), inactives show top-dose activity change, negative = inhibition; 340,000 tested, 0.071% active; AID 540253; active means falling FRET ratio curve, often poorly fitted, with flat reads before Ran was added; inconclusive means other falling curves, or compound fluorescence or quenching; inactive means flat or rising ratio curve;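 also: potency is read from the fitted curve at half-maximal effect; % of control where 0% means no effect; nearly all actives have a fitted effect of over 45% in size; -100% = wells without RanGTP and RCC1; the record marks most hits as doubtful in a second field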
#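 Rango (0.1 uM)–importin beta (0.25 uM) complex; RanGTP-RCC1 trigger; 45 min RT; CFP/YFP FRET read.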
# miR-21 FLuc – raises the signal of a miR-21 reporter. HeLa miR-21 FLuc reporter, luciferase, 48 h. Potency, µM (doses to about 38.3 µM), for the others: at the top dose reporter change, positive = more light. 340,000 tested, under 10 active. AID 2288; active = well fitted rising curve with a large enough effect; inconclusive = small, poorly fitted or top-dose-only effect; inactive = no such curve, though single readings can be large or run the other way;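 also: % of control where 0% means no effect; miR-21 action dims this reporter so a rising signal means less miR-21 action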
#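 Compounds were titrated across several concentrations (up to approximately 40 uM) and incubated 48 hours with HeLa miR-21-FLuc reporter cells (miR-21 target sequence downstream of FLuc, endogenous miR-21). Readout was firefly luciferase luminescence after lytic detection reagent.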
# Rango complex inh – prevents formation of the Rango-importin beta complex; Rango CFP/YFP FRET sensor + importin beta, 45 min; 340,000 tested, 0.031% active; Potency, µM (top dose mostly 92.2 µM), for inactives: at the top dose inhibition of complex formation; Q14974; active = rising FRET ratio curve, often small or poorly fitted; inconclusive = mostly compound fluorescence or quenching in the first reads; inactive = flat curves in all reads;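 also: potency is read from the fitted curve at half-maximal effect; 0% = DMSO wells and 100% = buffer wells lacking importin beta; nearly all actives have a fitted effect of over 15% in size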
#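 FRET biosensor Rango (snurportin 1 IBB between N-terminal EYFP and C-terminal Cerulean), 50 nM in PBS/1 mM DTT/0.02% Tween-20/0.1% BSA, preincubated 5 min RT with compound; 0.125 microM importin beta added, 45 min RT, CFP/YFP FRET ratio read.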
# GLA inh pH 4.5 – inhibitors of human alpha-galactosidase A at pH 4.5; AID 1467; 230,000 tested, under 10 active; purified enzyme, 4-MU-alpha-Gal fluorescence, pH 4.5; activity change, negative = inhibition, % at 105 µM; P06280; inconclusive = small, poorly fitted or top-dose-only inhibition, or a rising curve; inactive = flat fitted curve, though single readings scatter; no compound was filed as active;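 also: 0% = full activity with enzyme and -100% = basal without enzyme; dose as in the result columns while the protocol names 77 µM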
# Target sequence (P06280 whole entry, looked up): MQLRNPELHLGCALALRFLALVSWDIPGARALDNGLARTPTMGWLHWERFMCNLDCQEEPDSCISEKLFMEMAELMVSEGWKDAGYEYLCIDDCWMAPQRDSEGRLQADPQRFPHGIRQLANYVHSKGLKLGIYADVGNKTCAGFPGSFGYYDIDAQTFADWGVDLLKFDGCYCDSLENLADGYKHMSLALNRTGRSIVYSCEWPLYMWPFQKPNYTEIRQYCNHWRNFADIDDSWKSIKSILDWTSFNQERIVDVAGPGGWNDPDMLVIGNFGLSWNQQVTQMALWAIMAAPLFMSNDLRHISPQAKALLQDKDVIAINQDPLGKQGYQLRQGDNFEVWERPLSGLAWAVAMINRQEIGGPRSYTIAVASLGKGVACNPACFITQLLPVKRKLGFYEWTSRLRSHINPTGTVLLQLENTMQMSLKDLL
# Numbers without * were called inactive; ? = inconclusive; · = not tested or not shown; [ ] = another dose, or the depositor's remark. This is a subset; count on the stated rates, not on these rows.
# Results follow in this order: Rango release inh	miR-21 FLuc	Rango complex inh	GLA inh pH 4.5
C=CCn1c(SCC(=O)Nc2nccs2)nnc1-c1ccco1
→ 6%	-2%	8.6%	5
COC(=O)C1=C(C)NC2=C(C(=O)CC(C)(C)C2)C1c1cn(Cc2ccc(Br)cc2)nc1-c1ccccc1 (stereo not drawn)
→ ?	16%	?	3
CC(NC(=O)C1CCN(S(=O)(=O)c2cc([N+](=O)[O-])ccc2Cl)CC1)c1ccccc1 (stereo not drawn)
→ 5%	-4%	0.0%	16
Cc1ccc(C(=O)c2c3ccc([N+](=O)[O-])cc3[n+]([O-])n2CCC(N)=O)cc1
→ -18%	-10%	?	·
Cc1ccc(NC(=O)CSCC#N)cc1
→ -2%	-6%	-0.7%	1
C=C(C)c1cccc(C(C)(C)NC(=O)NCC2CCCO2)c1 (stereo not drawn)
→ 17%	-9%	6.1%	-5
O=C1c2ccncc2C(=O)N1c1cccc(Cl)c1
→ 0%	-1%	-3.0%	3[21.1 µM]
O=C(NCc1ccccc1)c1nncc(-c2ccccc2)n1
→ 47%	·	-4.6%	·
CCN(C(=O)c1ccc(N2CC3CC(C2)c2cccc(=O)n2C3)c(NC(=O)c2ccncc2)c1)c1cccc(C)c1 (stereo not drawn)
→ 7%	-1%	-1.4%	·
O=C(O)CSCC(=O)Nc1ccccc1
→ -16%	·	4.3%	·
Cc1ccc(NC(=O)C2CC(=O)N(C(C)C)C2)cc1Cl (stereo not drawn)
→ -1%	-8%	-3.0%	-12
O=C(C[n+]1cc(-c2ccc(Cl)cc2)n2c1CCC2)Nc1nc(-c2ccc(F)cc2)cs1
→ -7%	-4%	0.8%	-2
COc1ccc(/C=N/NC(=O)C2C3CCCCC32)cc1OC (stereo not drawn)
→ 4%	-31%	6.1%	1[21.1 µM]
CC(C)NC(=O)c1nn(C)c2ccccc12
→ 8%	-3%	1.8%	1
COc1ccc(CCNC(=O)C(=O)c2c(C)[nH]c3ccccc23)cc1
→ 1%	2%	0.5%	·
CCOC(=O)c1ccc(NC(=O)Cn2nnc(-c3ccccc3C)n2)cc1
→ -14%	-5%	0.3%	-20
O=S(=O)(CCN1CCN(c2ccccn2)CC1)c1ccc(F)cc1
→ -20%	3%	-1.8%	-4
COc1ccc(CNC(=O)COC(=O)c2n[nH]c3ccccc23)cc1
→ 12%	-7%	4.9%	-2
O=C(C1=C[C@H](c2ccc(C(F)(F)F)cc2)C[C@H](OCCCCO)O1)N1CCOCC1
→ 1%	-8%	0.9%	2
Fc1ccc(N2Cc3ccsc3C=N2)cc1
→ -3%	-32%	-0.7%	-4
COc1ccc(C(=O)NNC(=O)Cc2ccc([N+](=O)[O-])cc2)cc1
→ -8%	-6%	-1.0%	4
CC(=NNS(=O)(=O)c1ccc([N+](=O)[O-])cc1)c1ccc(C)cc1
→ -14%	·	0.0%	·
COc1cc2c3nnc(-c4ccc(F)cc4)c-3cn(Cc3ccccc3)c2cc1OC
→ ?	1%	?	-5
Cc1cccc(OCCCCCN2CCOCC2)c1
→ 9%	-12%	-0.9%	·
Cc1cc(C(N)=O)c2ccccc2n1
→ -10%	0%	6.0%	0
CCC1=Nc2cc(C(=O)NCCCN3CCN(C)CC3)ccc2Sc2ccccc21
→ 0%	-5%	0.8%	·
CC(Sc1n[nH]c(=O)n1Cc1ccccc1)C(=O)NCC1CCCO1 (stereo not drawn)
→ -8%	·	0.7%	·
CCN(CC)C(=O)CSc1nnc(-c2ccco2)n1N
→ -9%	-1%	-0.3%	5
CCc1[nH]nc(C(=O)N2CCCC(CNS(=O)(=O)c3cccs3)C2)c1C (stereo not drawn)
→ 15%	-19%	0.6%	-11
O=C(/C(=N\Nc1ccc([N+](=O)[O-])cc1)Sc1nnnn1-c1ccccc1)c1ccccc1
→ 0%	8%	1.1%	-10

# Results follow in this order: Rango release inh	miR-21 FLuc	Rango complex inh	GLA inh pH 4.5
COc1cc(C)ccc1S(=O)(=O)NC1CC(C)(C)NC(C)(C)C1
→ -14%	-8%	4.5%	·
C/C(=N\NC(=O)c1ccc2c(c1)OCO2)c1cccnc1
→ 1%	-15%	0.6%	·
O=C(CCCc1ccccc1)Nc1cccc([N+](=O)[O-])c1
→ 10%	-50%	-3.2%	·
Nc1c(C(=O)c2ccccc2)sc(Nc2ccccc2)c1S(=O)(=O)c1ccccc1
→ 1%	21%	?	-8
CCOc1ccc2nc(-c3ccc(OC)c(OC)c3)cc(C(=O)O)c2c1
→ 10%	-14%	-4.0%	1
CCOC(=O)c1c(C)n(CC(O)CN(C)C)c2cc(Br)c(OC)cc12 (stereo not drawn)
→ 1%	-20%	2.1%	4
CCCn1c(N)c(N(CCOC)C(=O)c2cc3ccccc3cc2OC)c(=O)[nH]c1=O
→ -5%	·	-3.6%	·
CC(C)(C)c1nnc(NC(=O)NS(=O)(=O)c2ccccc2)s1
→ 0%	-1%	0.0%	-3
O=C(COc1cccc(NC(=O)c2ccccc2)c1)c1ccc(F)cc1
→ 14%	26%	-5.6%	1
Cc1ccc(NC(=S)NCCc2ccc(S(N)(=O)=O)cc2)c(C)c1
→ 17%	·	1.5%	·
C=CCN(Cc1nc(-c2ccc(OC)c(OC)c2)oc1C)C1CCS(=O)(=O)C1 (stereo not drawn)
→ 3%	4%	0.2%	1
COc1ccc(OC)c(N(CC(=O)N2CCCCC2)S(=O)(=O)c2ccc(OC)c(OC)c2)c1
→ -6%	-9%	-3.5%	-4
CCOC(=O)c1cc2c(c(CCO)n1)[C@H](CCO)N(S(=O)(=O)C(C)(C)C)C2
→ -6%	·	0.1%	·
CC(=O)Nc1ccc(OCC(=O)NCc2ccccc2)cc1
→ 7%	0%	-1.0%	1
[O-]/C(=C(\C(=S)Nc1ccc(SC(F)F)cc1)[n+]1ccccc1)c1cc(Cl)ccc1Cl
→ 41%	3%	3.6%	-7
COc1ccc(-c2noc3c2-c2nc(C(C)C)sc2CC3)cc1
→ 1%	·	-1.2%	·
NC(=S)Nc1cccc2[nH]ncc12
→ 7%	1%	0.1%	12
CCOc1ccc(N(CC(=O)NC(C)(C)C)C(=O)CCC(=O)Nc2nccs2)cc1
→ -2%	-5%	-0.2%	·
Cc1nnc(NC(=O)c2cccc(S(=O)(=O)N3CCCC3)c2)s1
→ -14%	1%	-1.7%	·
CC1CCCC(C)N1C(=O)COC(=O)C12CC3CC(CC(Cl)(C3)C1)C2 (stereo not drawn)
→ 1%	·	2.1%	·
CC(Nc1cc(N2CCN(S(C)(=O)=O)CC2)ccc1[N+](=O)[O-])c1ccccc1 (stereo not drawn)
→ 0%	-15%	-1.2%	-6
CCC(=O)Nc1ccccc1C(=O)C(=O)Nc1ccccc1
→ -15%	-55%	2.7%	-2
Cc1cc(SCC(=O)Nc2ccc(O)cc2)n2ncc(-c3ccccc3)c2n1
→ -17%	-11%	-2.5%	-4
O=C(c1ccc(=O)[nH]c1)N(Cc1ccco1)C1(C(=O)NC2CCCCC2)CCCCC1
→ -8%	-8%	?	5
COc1ccc(C(=O)CCN2CCN(c3ccc(OC)cc3)CC2)cc1
→ 0%	3%	-0.5%	·
NC(=O)C1CCN(C(=O)CSc2nc3c(c(-c4ccccc4)n2)CCCC3)CC1
→ 0%	2%	-1.3%	0
Oc1ccc(Cl)cc1N=Cc1sc2ccccc2c1Cl
→ 4%	-2%	0.6%	1
O=C(CSc1nnc2ccc(-c3ccncc3)nn12)c1cccs1
→ -2%	-17%	?	1
CCOc1cnc(C(=O)NNC(=O)C(Br)C(C)C)o1 (stereo not drawn)
→ -2%	-15%	4.4%	-1
Cn1c(SCC(=O)Nc2nccs2)nnc1-c1ccccn1
→ 0%	4%	-4.6%	·

# Single records, as listed above:
# `CCOc1ccc(N(CC(=O)NC(C)(C)C)C(=O)CCC(=O)Nc2nccs2)cc1` in the list: Rango release inh = -2%; miR-21 FLuc = -5%; Rango complex inh = -0.2%; GLA inh pH 4.5 = ·
# `O=C(COc1cccc(NC(=O)c2ccccc2)c1)c1ccc(F)cc1` in the list: Rango release inh = 14%; miR-21 FLuc = 26%; Rango complex inh = -5.6%; GLA inh pH 4.5 = 1

# The list continues:
compound | Rango release inh | miR-21 FLuc | Rango complex inh | GLA inh pH 4.5
Cc1cc(C(=O)CSc2n[nH]c(N)n2)c(C)n1-c1ccc2c(c1)OCO2 | 10% | -31% | -0.7% | 1
CCC(C(=O)N1CCN(C(=O)c2ccco2)CC1)c1ccccc1 (stereo not drawn) | 1% | -5% | -1.0% | 1
O=C1NC2=C(C(=O)CCC2)C(c2ccc([N+](=O)[O-])cc2)N1 (stereo not drawn) | -1% | 4% | -1.0% | ·
C[C@H]1CCC[C@]2(CC(=O)c3cc(F)ccc3O2)C1 | 9% | · | -3.8% | ·
Cc1cnc(C(=O)OCC(=O)c2ccc(C)s2)cn1 | 6% | · | 1.3% | ·
CC(C)=CCc1cc([C@@H]2COc3c(ccc4c3C=CC(C)(C)O4)C2)c(O)cc1O | -14% | · | -1.1% | ·
COc1ccc(C)cc1NC(=O)CSc1nnc(-c2ccco2)n1Cc1ccco1 | 0% | 1% | -3.2% | -1
COC(=O)c1ccccc1NC(=O)c1cc(-c2ccco2)on1 | 2% | -2% | -0.2% | ·
CC(C)(C)C(=O)C1=C(O)C(=O)N(Cc2ccccc2)C1c1ccccc1Cl (stereo not drawn) | ? | 10% | -6.3% | ·
Cn1cc(CN2CCCC(CO)C2)c(-c2ccc(Oc3ccccc3)cc2)n1 (stereo not drawn) | 13% | -3% | 0.0% | -2
O=C(Nc1ccc(C(=O)NCCCN2CCN(c3ccc(F)cc3)CC2)cc1)C1=CSCCO1 | 11% | 9% | -0.9% | ·
Cc1cc(C)n(C(=O)CCCCCCCC(=O)n2nc(C)cc2C)n1 | 15% | -5% | -2.0% | -3
Cc1ccc(-c2csc(N3CCN(S(=O)(=O)c4ccc5c(c4)NC(=O)CO5)CC3)n2)cc1 | -4% | -1% | -0.5% | ·
CC(=O)NCCc1nc2cc(NC(=O)Nc3ccccc3)ccc2n1C | -7% | -30% | 0.1% | ·
CC(=O)C(Sc1nnnn1-c1ccc(O)cc1)c1ccccc1 (stereo not drawn) | -12% | -1% | 1.3% | ·
CCCc1cc(=O)[nH]c(SCC(=O)N2N=C(c3ccc(Cl)cc3)CC2c2ccco2)n1 (stereo not drawn) | 0% | -13% | ? | -5
N#CC1=C(N)OC2=C(C(=O)CC(c3ccccc3)C2)C1c1ccoc1 (stereo not drawn) | -12% | -1% | ? | -3
CN(Cc1cccs1)S(=O)(=O)c1cccs1 | 1% | 2% | 5.0% | -4
CC(=O)n1cc([C@H]2C=C(C(=O)N3CCOCC3)O[C@@H](OCc3ccc(CO)cc3)C2)c2ccccc21 | 3% | 6% | 0.6% | 2
Cc1ccc(CN2C(=O)CCC2(C)C(=O)NCc2cccnc2)cc1 (stereo not drawn) | -5% | -3% | 0.7% | 6
COc1ccc(-c2cc(-c3ccccc3)c(C#N)c(=S)[nH]2)cc1 | -6% | -3% | -2.4% | 8
Cc1ccccc1Nc1nn2c(=O)c3ccccc3nc2s1 | 1% | -20% | -2.6% | -6
Cc1ccccc1NC(=O)Cc1nc(CSc2nnc(-c3ccc4c(c3)OCO4)o2)cs1 | -11% | -26% | -2.9% | 7

# By substructure, the entries above with bromine
compound | Rango release inh | miR-21 FLuc | Rango complex inh | GLA inh pH 4.5
COC(=O)C1=C(C)NC2=C(C(=O)CC(C)(C)C2)C1c1cn(Cc2ccc(Br)cc2)nc1-c1ccccc1 (stereo not drawn) | ? | 16% | ? | 3
CCOC(=O)c1c(C)n(CC(O)CN(C)C)c2cc(Br)c(OC)cc12 (stereo not drawn) | 1% | -20% | 2.1% | 4
CCOc1cnc(C(=O)NNC(=O)C(Br)C(C)C)o1 (stereo not drawn) | -2% | -15% | 4.4% | -1
